Screening results (PubChem BioAssay)
nsP2pro inh: blocks chikungunya virus nsP2 protease peptide cleavage; 1.1% of 31,000 active; Q8JUX6; Potency, µM (titrated, usually from 24.9 µM), for inactives: at the top dose activity change, negative = inhibition, actives largely listed as inhibitors; AID 1964107; FRET peptide cleavage, nsP2pro, fluorescence 1 h; active means well fitted inhibition curve with a large enough effect; inconclusive means small, poorly fitted or top-dose-only effect; inactive means no such curve, though single readings can be large or run the other way; also: nearly all actives have a fitted effect of over 60% in size; a reference inhibitor and vehicle were the controls
Starred values were filed as active, the others as inactive; i = inactive; ? = inconclusive; [ ] = another dose, or the depositor's remark. % is scaled to controls: 0 for no effect and ±100 for the full control effect; potency is read from the fitted curve at half-maximal effect.

item | structure | nsP2pro inh
1 | Cc1ccc(Cl)cc1N1CCN(C(=O)CCS(=O)(=O)c2cc(Br)cc3c2N(C(=O)C2CC2)CC3)CC1 | -24.1%
2 | Cc1cnc(-c2ccccc2)n1C1CCCN(S(=O)(=O)c2ccccc2)C1 (configuration not stated) | i
3 | COc1cc(C(CC(=O)Nc2ccc(F)cc2F)N2Cc3ccccc3C2=O)cc(OC)c1OC (configuration not stated) | -7.2%
4 | COc1cc2c(cc1OC)C(COc1ccc3c(C)cc(=O)oc3c1)N(C(=O)Cc1ccccc1)CC2 (configuration not stated) | -11.1%
5 | COc1ccc2cc3cc(C(=O)Nc4ccc(F)cc4)sc3nc2c1 | 3.5%
6 | Cn1c(=O)c2ccnn2c2ccc(C(=O)NCC3CCN(Cc4ccccc4F)CC3)cc21 | i
7 | O=C(Nc1noc2ccccc12)c1cccc(Cl)c1Cl | -19.6%
8 | c1ccc(CNc2nc3ccccc3c3nc(-c4ccccc4)nn23)cc1 | -19.2%
9 | CC1=C(CO)CC(C(C)C2CCC3C4CC=C5CC(OC6OC(COC7OC(CO)C(O)C(O)C7O)C(O)C(O)C6O)CC(O)C5(C)C4CCC23C)OC1=O (configuration not stated) | 3.6%[10 µM]
10 | Nc1ccn([C@@H]2O[C@H](CO)[C@@H](O)C2O)c(=O)n1 (some centres not stated) | -17.3%
11 | O=C(NCC(O)CO)c1c(I)c(C(=O)NCC(O)CO)c(I)c(N(CCO)C(=O)CO)c1I (configuration not stated) | -1.3%
12 | COc1ccc(-n2nc3ccc(NC(=O)c4ccc(-c5cc(Cl)ccc5Cl)o4)cc3n2)cc1 | ?
13 | CN(C)c1ccc(Nc2nc(N)n(C(=O)c3c(F)cccc3F)n2)cc1 | i
14 | Cc1cccc2sc(N(CCCN(C)C)C(=O)c3ccc(Cl)s3)nc12 | 0.3%
15 | CC1=C(c2ccc(Cl)cc2)S(=O)(=O)N=C1N1CCC(C(=O)NCCc2ccco2)CC1 | 11.2µM*
16 | CCN1CCC(N(Cc2ccc3c(c2)OCO3)C(=O)Nc2ccc(Br)c(C)c2)CC1 | 20.1%
17 | CCc1ccc(CNC(=O)Cn2c(C)cc3nc4n(c(=O)c32)CCCC4)cc1 | i
18 | O=C(Nc1ccc(S(=O)(=O)Nc2nccs2)cc1)C1CC(OCc2ccccc2)C1 (configuration not stated) | -0.7%
19 | CN(c1ccc(F)cc1)S(=O)(=O)N1CCCC(C(=O)NCc2cccc(Br)c2)C1 (configuration not stated) | -17.0%
20 | CCc1ccc(S(=O)(=O)c2nnn3c2nc(N2CCCC2)c2sccc23)cc1 | -14.7%

Two of the compounds above, with each value named.
17	CCc1ccc(CNC(=O)Cn2c(C)cc3nc4n(c(=O)c32)CCCC4)cc1
- nsP2pro inh = i

7	O=C(Nc1noc2ccccc12)c1cccc(Cl)c1Cl
- nsP2pro inh = -19.6%

Carrying on:
item | structure | nsP2pro inh
21 | C[C@@H]1O[C@@H](O[C@H]2[C@H](OC(=O)[C@]34CCC(C)(C)C[C@H]3C3=CCC5[C@@]6(C)CC[C@H](O[C@@H]7O[C@H](CO[C@@H]8OC[C@H](O)[C@H](O)[C@H]8O)[C@@H](O)[C@H](O)[C@H]7O)C(C)(C)C6CC[C@@]5(C)[C@]3(C)C[C@H]4O)OC[C@@H](O)[C@@H]2O)[C@H](O)[C@H](O)[C@H]1O[C@@H]1OC[C@H](O)[C@H](O[C@@H]2OC[C@@H](O)[C@H](O)[C@H]2O)[C@H]1O (some centres not stated) | 43.9%[5.1 µM]
22 | Cc1ccc(-c2ccc(=O)n(CC(=O)NCCCN(C)C)n2)cc1 | -1.0%
23 | COc1cc(F)c(S(=O)(=O)N2CCN(S(=O)(=O)c3cccc(NC(C)=O)c3)CC2)c(F)c1 | i
24 | O=C(NCc1ccc2c(c1)CCN2C(=O)c1ccc(F)cc1)c1c(F)cccc1F | -17.9%
25 | O=S(=O)(c1ccc2c(c1)OCCO2)N1CCN(S(=O)(=O)c2c(Cl)cc(C(F)(F)F)cc2Cl)CC1 | ?
26 | O=C(OCC#CCSc1nnc(-c2cccc3ccccc23)o1)c1ccc(F)cc1 | -6.2%
27 | NC(=O)c1c(NC(=O)c2noc3c2CCCC3)sc2c1CCCC2 | ?
28 | CCCCN(CC)c1nc(C)nc2c1c(C)cn2-c1c(C)cc(C)cc1C | -3.4%
29 | CCOCCCN1C(=O)CN(C2CCCCCC2)C(=O)C1c1ccc(OCC)c(OC)c1 (configuration not stated) | -21.1%
30 | CC(=O)Cc1cc(=O)c2c(C)cc(O)c(C3OC(CO)C(O)C(O)C3O)c2o1 (configuration not stated) | ?
31 | CN/C(=C\[N+](=O)[O-])NCCSCc1csc(CN(C)C)n1 | 8.6%
32 | COc1ccc2c(c1)c(CC(=O)OCC(=O)O)c(C)n2C(=O)c1ccc(Cl)cc1 | 9.0%
33 | CCOC(=O)C1CCCN(S(=O)(=O)c2ccc3c(c2)N(C)C(=O)CC(=O)N3C)C1 (configuration not stated) | -25.6%
34 | Cc1ccc(-c2cc(C(=O)Nc3ccccc3)c3ccccc3n2)cc1C | -11.8%
35 | CC1NC(=O)CNC(=O)C(C(C)C)NC(=O)C2CCCN2C(=O)C(C(C)C)NC(=O)C(Cc2c[nH]c3ccccc23)NC1=O (configuration not stated) | -3.6%[10 µM]
36 | CCCN1C(=O)Cc2cc(C(=O)N3CCN(c4ccccc4Cl)CC3)ccc21 | -11.6%
37 | CC(C)NC(=O)N1CCCC1c1noc(CCC(=O)NCC2CC2)n1 (configuration not stated) | -3.3%
38 | O=C(OCC#CCSc1nnc(-c2cccc3ccccc23)o1)c1ccc(Cl)c(C(F)(F)F)c1 | -1.9%
39 | O=C(CCCc1nc2ccccc2s1)N1CCc2nc3cc(-c4ccccc4)[nH]n3c(=O)c2C1 | i
40 | CN1CCCN(C[C@@H]2CN(C(=O)c3ccn(C)n3)C[C@@H]2CO)CC1 | i
41 | COc1cccc(-c2ccc3ncnc(NCc4cccnc4)c3c2)c1 | i
42 | CCOc1ccc(-c2ccnc(NC[C@@H]3CCCO3)n2)cc1C(=O)O | -3.9%
43 | CSc1cccc(CN(C)Cc2cc3n(n2)CCNC3)c1 | i
44 | CCOc1ccc(CCNC(=O)c2cc3sccc3n2Cc2ccccc2)cc1OCC | -6.0%
45 | CN1CC2(CCCN(C3CCN(C(=O)c4cnccn4)CC3)C2)OC1=O (configuration not stated) | i
46 | O=S(=O)(c1ccc(Br)s1)N1CCN(c2cccc(C(F)(F)F)c2)CC1 | -10.4%
47 | COc1ccnc2c1CCCCC2S(=O)c1nc2ccccc2[nH]1 (configuration not stated) | ?
48 | Oc1cccc2cc(N3CCCC3)cnc12 | -26.8%
49 | Cc1ccc(C(=O)N2CCC(Cc3noc(C4CCOCC4)n3)C2)s1 (configuration not stated) | -0.9%
50 | O=S(=O)(Nc1cc(Cl)c(Oc2cnc3ccccc3c2)c(Cl)c1)c1ccc(Cl)cc1Cl | 3.1%
51 | Cc1cc(=O)n(CC(=O)Nc2cccc([N+](=O)[O-])c2)c(-n2nc(C)cc2C)n1 | 14.8%
52 | CCOc1ccc(NC(=O)c2c(NCc3sccc3C)sc3c2CCCCC3)cc1 | 10.7%
53 | CCOC(=O)C1CCCN(S(=O)(=O)c2cc3c4c(c2)CC(=O)N4CCC3)C1 (configuration not stated) | -25.0%
54 | Cc1nn(CC(=O)N2CCCC3(CNC(=O)O3)C2)c(=O)c2ccccc12 (configuration not stated) | -9.5%
55 | Fc1ccc(Cn2c(-c3cccc(Br)c3)nc3ccccc32)cc1 | 5.7%
56 | CCc1ccc(NC(=O)Cn2c(=O)c3cc(Cl)ccc3n3nncc23)cc1 | -14.9%
57 | O=C(c1cc(F)ccc1F)N1CC(c2nc(CCc3ccccc3)no2)C1 | -8.5%
58 | COc1cccc(Cn2ncc3c4sc(Br)cc4n(C)c3c2=O)c1 | -8.5%
59 | COCCO[C@H]1COCCN(C2CCOCC2)C1 | -4.2%[39.2 µM]
60 | COc1ccc(C2Cc3ccccc3C(=O)N2Cc2ccccc2)cc1COc1ccc(NC(C)=O)cc1 (configuration not stated) | 1.1%

Structural class, those above containing a COOH group.
item | structure | nsP2pro inh
32 | COc1ccc2c(c1)c(CC(=O)OCC(=O)O)c(C)n2C(=O)c1ccc(Cl)cc1 | 9.0%
42 | CCOc1ccc(-c2ccnc(NC[C@@H]3CCCO3)n2)cc1C(=O)O | -3.9%

The list continues.
item | structure | nsP2pro inh
61 | COc1ccc(Cn2c(CO)cnc2SCC(=O)NCc2ccco2)cc1 | -23.3%
62 | Cc1ccccc1C1=CCN(c2ncc(NC(=O)c3ccc(Cl)cc3)cc2C(=O)O)CC1 | ?
63 | Cc1ccc(C)c(-c2cc(C(=O)N3CCCC3c3nncn3C(C)C)[nH]n2)c1 (configuration not stated) | i
64 | CCCn1c(C)nc2c(NCCCCN3CCCC3)nc(C)nc21 | -0.3%
65 | CCC(=O)N1CCCC(c2nc(-c3cccnn3)no2)C1 (configuration not stated) | -9.8%
66 | COc1cc(OC)c(N(C)C(=O)c2sc3nc4n(c(=O)c3c2C)CCCC4)cc1Cl | -8.7%
67 | CCCCOC(=O)c1ccc(NC(=O)C2(c3cccs3)CCOCC2)cc1 | -7.3%
68 | CCOc1ccc(NC(=O)c2ccc3c(c2)c(C)c(C)n3Cc2ccc(F)cc2)cc1 | -4.7%
69 | COc1cc(C(=O)O)ccc1OC1OC(CO)C(O)C(O)C1O (configuration not stated) | -3.4%
70 | Cc1ccc(CN2CCCOCCNC(=O)[C@@H]3CCCC[C@@H]32)o1 | ?
71 | Cc1nc(C)c(C(=O)N2CCC(Cc3nc(C4CC4)n[nH]3)CC2)s1 | ?
72 | CC(C)N1C(=O)C2(CCN(C(=O)c3ccccc3F)CC2)C1c1ccccc1 (configuration not stated) | i
73 | CCOc1ccc(CN2CCN(C/C=C/c3ccccc3OC)CC2CCO)cc1 (configuration not stated) | i
74 | Cc1ccc(CN2CC[C@H](c3nc4cc(C)ccc4o3)C2)cc1 | i
75 | Cc1ccc(C(=O)Nc2cccc3cccnc23)cc1Cl | -26.3%
76 | C=C1[C@H]2CC[C@]3(O)[C@@](CC[C@@H]4[C@](C)(C(=O)O)CCC[C@]43C)(C2)[C@H]1OC(=O)/C(C)=C\C | ?
77 | CCN1c2cc(C)ccc2-n2cccc2C12CCN(C(=O)Nc1cc(OC)c(OC)c(OC)c1)CC2 | 2.6%
78 | COc1ccccc1OCC(O)CN1CCN(CC(=O)Nc2c(C)cccc2C)CC1 (configuration not stated) | ?
79 | COc1ccccc1N1CCN(C(=O)C[C@@H]2C[C@@H](C(C)C)[C@H](CO)C=C2C)CC1 | i
80 | COc1ccc(-n2c(SCC(=O)NCc3ccc(C)cc3)nc3n[nH]c(C)c3c2=N)cc1 | 0.0%
81 | OCCc1cc(CC2(NCc3ccc(CO)o3)COC2)no1 | -30.7%[39.2 µM]
82 | COc1ccc(C)c2sc(NC(=O)c3ccncc3)nc12 | -14.9%
83 | CC(C)N1CC2CCC(C1)N2Cc1cccs1 | -10.0%[39.2 µM]
84 | COc1ccc(CC(=O)Nc2sc3c(c2C(=O)Nc2c(C)cccc2C)CCCCC3)cc1 | -17.3%
85 | Cc1ccc(NS(=O)(=O)c2ccc3[nH]c(=O)oc3c2)c(C)c1 | 3.7%
86 | COc1ccccc1N1CCN(S(=O)(=O)CCNC(=O)COc2ccccc2F)CC1 | -16.6%
87 | N#CN1CCC(NS(=O)(=O)c2ccc(C(F)(F)F)cc2)CC1 | 0.1%
88 | CCN(CC)CCNC(=O)c1ccc2nc(-c3ccccc3)c(-c3ccc(CN4CCC(n5c(=O)[nH]c6ccccc65)CC4)cc3)nc2c1 | 113.9%[activator]
89 | Cc1ccc(S(=O)(=O)Nc2ccc(Cl)cc2C(=O)Nc2nc(-c3ccccc3)cs2)cc1 | -5.8%
90 | CCC(=O)N1c2ccccc2CC1C(=O)NCCCN1CCN(c2ccc(OC)cc2)CC1 (configuration not stated) | 1.1%
91 | Cc1cnc(CCNS(=O)(=O)c2cccc(F)c2)n1Cc1ccccc1 | i
92 | COc1ccc(NC(=O)c2c(C)oc3ccc(O)c(CN4CCCCCC4)c23)cc1Cl | 24.7%
93 | COc1ccc(OC)c(/C=C(\C#N)c2nc(-c3ccc(F)cc3)cs2)c1 | -19.6%
94 | COc1ccccc1-c1ccc(C(=O)N2C[C@@H](N(C)C)[C@H](C(C)C)C2)cc1 | 3.5%
95 | C=C1C(=O)O[C@@H]2C[C@H](C)[C@@]3(O)C=C(C(C)=O)[C@]4(CC3C[C@H]12)C(=O)O[C@H]1C[C@@H](C)C(CCC(C)=O)=CC[C@H]14 (some centres not stated) | -0.7%[10 µM]
96 | O=C(NCCN1CCC(n2c(=O)[nH]c3ccccc32)CC1)c1ccc2ccccc2c1 | 6.7%
97 | Cc1cccc(C)c1OCc1cccc(C2Nc3ccccc3C(=O)N2Cc2ccco2)c1 (configuration not stated) | -7.8%
98 | CC[C@@H]1CCN[C@H](C(=O)N[C@@H]([C@H]2O[C@H](SC)[C@H](O)[C@@H](O)[C@H]2O)[C@H](C)Cl)C1 | -6.4%
99 | CC(=O)OC1CC2(C)C(CCC(C)C23Cc2c(O)cc(CO)c(C=O)c2O3)C(C)(C)C1O (configuration not stated) | ?
100 | COc1ccc(CNC(=O)C(CC(C)C)N2Cc3ccccc3C2=O)cc1 (configuration not stated) | -12.7%
101 | Cc1cccc(N2CCN(c3ccc(C(=O)O)cc3NC(=O)c3cccc(Cl)c3)CC2C)c1 (configuration not stated) | ?
102 | CN(CC(=O)N1CCOCC1)Cc1c(Cl)cccc1NC(=O)c1ccccc1 | 0.0%
103 | COc1cccc(CNC(=O)c2sc3nc(C)cc(C)c3c2-n2cccc2)c1OC | 2.6%
104 | O=C(Nc1ccccc1)Nc1ccc(=O)n2c1[C@@H]1C[C@@H](CN(C(=O)COc3ccccc3)C1)C2 | ?
105 | CCCS(=O)(=O)N1CCC(F)(c2nc(CC(C)C)no2)CC1 | 3.3%
106 | CC(=O)C1CCC2C3CCC4C[C@@H](O)CCC4(C)C3CCC12C (some centres not stated) | 3.6%

The list is partial. The share of hits here may be higher or lower than overall.
